# Calb FLC: C. albicans growth modulation with fluconazole | C. albicans CaCi-2 (fluconazole-resistant clinical isolate) + fluconazole, Alamar Blue growth, 48 h | growth inhibition, % (concentration not given with the values) | hit rate 0.57% among 300,000 | AID 1979;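 active = most replicates above 75%; inconclusive = exactly half above 75%; inactive = most below 75%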;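 note: all wells also contain fluconazole at 8 µg/ml as a sub-toxic cotreatment; 0% = median of DMSO wells and 100% = median of geldanamycin control wells; wells of about 8 µL received 7.5 nL stock; the first replicate is given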
# Vif TR-FRET: HIV-1 Vif–A3G interaction blockers – biochemical, TR-FRET, GST-Vif 1-94, biotin-A3G peptide, dose response retest, primary screen (AID 1117319); TR-FRET GST-Vif / biotin-A3G peptide binding; higher % means a stronger effect; test concentration not given here; strong numbers were not always called active; inhibition, %; hits with a dose series show IC50 in µM; hit rate 0.57% among 260,000;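 active = above the screen mean plus three standard deviations and confirmed in dose response; inconclusive = results disagree or hit not tested in dose response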;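 note: Vif residues 1-94 fused to GST binding biotinylated APOBEC3G peptide 110-148; 0% = full assay without inhibitor and 100% = GST in place of GST-Vif; retest series ran down from 100 µM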
# T cruzi repl: T. cruzi replication inhibition; T. cruzi beta-gal in NIH3T3, luminescence, 90 h; hit rate 1.4% among 300,000; AID 1885; inhibition, % (test concentration not listed);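 active = mean inhibition across valid replicates above about 55%, limit read from the data; inconclusive = mean below that limit but half or more replicates reach it; inactive = mean below it, under half of replicates reach it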;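 note: signal also drops with host cell toxicity which is not excluded here; 0% = plate median of DMSO wells and 100% = zero luminescence signal; higher percent means less beta-gal luminescence so fewer parasites; stock transfer was 50 nL into about 50 µL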
# AF4-AF9 inh: blocks AF4 peptide binding to human AF9; P42568; AlphaScreen, biotin-AF4 peptide binding to FLAG-AF9; inhibition, % at 10 µM; hit rate 0.47% among 350,000; AID 651704;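 active = every replicate reaching a set inhibition limit, whatever the replicate mean, cut at about 25% in these data; inconclusive = mean inhibition reaches that limit but some replicates miss it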;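 note: 0% = plate neutral control median and 100% = total signal loss; the record names both 10 and 1 µM as test concentration; the first replicate is given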
# Target sequence (P42568 whole entry, looked up): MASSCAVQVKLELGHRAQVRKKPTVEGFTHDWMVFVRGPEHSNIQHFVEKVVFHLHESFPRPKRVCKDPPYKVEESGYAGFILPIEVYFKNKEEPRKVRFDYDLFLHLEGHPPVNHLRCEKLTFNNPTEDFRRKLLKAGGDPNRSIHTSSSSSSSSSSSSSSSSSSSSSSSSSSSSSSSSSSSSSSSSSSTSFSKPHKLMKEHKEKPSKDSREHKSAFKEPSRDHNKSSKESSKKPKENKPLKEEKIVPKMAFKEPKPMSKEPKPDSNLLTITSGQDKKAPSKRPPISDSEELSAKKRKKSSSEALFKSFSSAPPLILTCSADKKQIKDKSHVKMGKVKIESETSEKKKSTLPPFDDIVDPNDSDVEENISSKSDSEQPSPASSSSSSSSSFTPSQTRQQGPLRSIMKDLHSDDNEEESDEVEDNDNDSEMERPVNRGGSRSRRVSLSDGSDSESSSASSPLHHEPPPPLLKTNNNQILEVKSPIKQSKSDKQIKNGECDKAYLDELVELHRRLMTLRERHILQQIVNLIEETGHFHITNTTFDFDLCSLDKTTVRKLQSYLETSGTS
# A1 inh: inhibitors of the anti-apoptotic protein A1, read as caspase activation; hit rate 0.066% among 330,000; MEF A1-2A-BIM cells, Caspase-Glo 3/7 luminescence, 3 h; percent of clofoctol response, vehicle zero; caspase activation, % (no concentration beside the values);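 active = over half of replicate activation scores above 10%, or exactly half above 10 with the replicate mean above 10; inconclusive = replicate mean below 10 yet half the replicates above 10; inactive = over half of replicates below 10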;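 note: wells of about 30 µL received 50 nL stock; many hits fall short of the cut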
# LANA-H2A inh: blocks KSHV LANA binding to histone H2A/H2B | Q9QR71 | hit rate 0.6% among 320,000 | cell-free LANA-H2A/H2B peptide, fluorescence polarization | inhibition, % (no concentration beside the values); in the data active = inhibition mostly above about 10%, no sharp cut-off; inactive = mostly below about 6.7%;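 note: stock transfer was 7.5 nL into about 10 µL; 0% = median of vehicle wells and 100% = median of positive control wells; one replicate is shown; the record names a cut of 25% in any replicate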
# Beta apoptosis: blocks beta cell apoptosis. INS-1E cytokine-induced death, ATP luminescence, 48 h; percent of positive-control rescue, neutral wells zero. protection from apoptosis, % (concentration not given with the values). hit rate 0.8% among 300,000;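 active = all replicates at 75% or more, or half of them and the mean; inconclusive = half reach 75% but not the mean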;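 note: 0% = cytokine-treated negative control wells and 100% = positive control rescue; higher means more ATP so stronger rescue from cytokine killing; wells of about 40 µL received 100 nL stock; the first replicate is given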
# RanGTP-Imp inh: disruptors of Ran-importin-beta complex formation – biochemical, FRET, CFP-Ran, YFP-importin-beta, homogeneous, primary screen | cell-free CFP-Ran/YFP-importin-beta FRET ratio | hit rate 1.1% among 300,000 | AID 2216 | inhibition, % (test concentration not listed);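 active = most replicates above 15%; inconclusive = exactly half above 15%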;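 note: 0% = DMSO wells and 100% = Ran loaded with GDP instead of GTP; wells of about 40 µL received 100 nL stock; the first replicate is given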
# * marks the source's active call; other numbers are inactive results; u = inconclusive; x = not tested or not shown.
SMILES,Calb FLC,Vif TR-FRET,T cruzi repl,AF4-AF9 inh,A1 inh,LANA-H2A inh,Beta apoptosis,RanGTP-Imp inh
CC1CCN(C(=O)COC(=O)c2cc(S(=O)(=O)N3CCOCC3)ccc2Cl)CC1,0,-1%,-8,-0.3,0.4,x,5,0.0
COCCN1Cc2cccc(C(=O)NCc3cccnc3)c2C1=O,-1,-5%,-6,-3.9,-0.3,0.2,-2,0.1
COc1cccc(OCCNS(=O)(=O)c2cccc([N+](=O)[O-])c2)c1,8,-5%,-3,-0.4,0.1,2.2,5,-6.7
CCN(C(=O)CN1C(=S)NC(C)(C)CC1C)c1ccc(C)c(C)c1 (stereo not given),-18,14%,-19,-0.2,0.2,1.3,1,4.1
O=c1[nH]c(COc2ccccc2)nc2ccccc12,9,-4%,-9,2.4,-4.8,2.0,-5,1.9
OC12CCCCC1C(c1ccc3c(c1)OCO3)N(Cc1cccc(F)c1)CC2 (stereo not given),x,1%,28,2.6,x,-9.4,x,-3.4
CC1CC1C(=O)OCC(=O)NCc1ccccc1 (stereo not given),x,x,x,1.6,-0.3,-0.2,-7,x
CCc1ccc(OCCOCCN2CCN(C)CC2)cc1,-8,-1%,44,0.8,0.4,5.9,-2,u
Cc1ccc(S(=O)(=O)CCSc2nc(C)cc(C(F)(F)F)c2C#N)cc1,2,x,3,x,0.4,5.4,3,-2.7
Cc1ccc(C)c(S(=O)(=O)Nc2ccc(O)c(C(=O)O)c2)c1,-5,u,-12,-1.9,0.2,0.1,-5,1.2
COc1ccc(OC)c(NC(=O)COC(=O)Cc2ccc(-c3ccccc3)cc2)c1,0,x,11,x,0.1,-1.8,-3,0.1
Cc1ccc(-n2cnnn2)cc1Cl,-15,-7%,-5,0.8,-1.2,-5.3,-29,5.1
COc1cccc(-c2noc(CCCC(=O)N3CCOCC3)n2)c1,-7,1%,-7,2.0,-0.7,2.8,-6,-2.4
NC(=O)c1ccsc1NC(=O)c1cc(=O)c2ccccc2o1,x,x,x,7.3,-5.4,9.3,7,x
N/C(Cc1ccc([N+](=O)[O-])cc1)=N\OC(=O)COc1ccccc1Cl,0,22%,2,0.9,0.5,-2.0,-2,0.6
O=C(c1ccccc1Cl)c1c(O)c2ccccc2oc1=O,-6,x,-14,-0.3,-0.8,0.6,0,3.4
CCOc1ccc(OCC(=O)Nc2ccc(OC)cc2)cc1,-4,-5%,7,x,-0.1,3.9,x,1.6
COc1ccc(-n2nnc3c(=O)n(Cc4ccccc4C)cnc32)cc1,0,20%,1,6.0,0.6,-0.1,-1,-2.2
CCN1CCSc2ccc(C(=O)NCc3cc(Br)ccc3OC)cc21,-2,x,39,u,0.1,-4.2,0,u
CC(C)C[C@H]1CN=C(N(C)C)N1CC1CCCC1,x,x,x,-3.0,-1.5,-5.9,-9,x
CN(C)c1ccc(/C=C/C#N)cc1,0,>100µM*,-38,x,0.5,-12,x,2.2
CCCN(CC(=O)Nc1ccc(F)c(F)c1F)C(=O)CCc1nc2ccccc2c(=O)[nH]1,12,x,0,1.0,1.7,-2.2,-1,-1.0
Cc1cccc(C(=O)Nc2sc(-c3ccccc3)cc2C(=O)O)c1,6,5%,1,-132,-0.6,6.4,3,-1.9
CCCc1[nH]nc2c1C(c1ccc(OC(=O)c3ccco3)cc1)C(C#N)=C(N)O2 (stereo not given),-3,-2%,-2,x,0.1,3.2,-3,4.1
COc1cc2c(cc1OC)C(C(=O)N1CCCC1)C(c1ccccc1F)N(C)C2=O (stereo not given),19,31%,-7,x,1.6,0.0,x,-1.4
# (more compounds)
SMILES,Calb FLC,Vif TR-FRET,T cruzi repl,AF4-AF9 inh,A1 inh,LANA-H2A inh,Beta apoptosis,RanGTP-Imp inh
CCn1cc(CN2CCN(Cc3ccc(OC)c(C)c3C)C(CCO)C2)c(C)n1 (stereo not given),-21,-9%,-4,-2.2,-0.2,-3.5,-5,4.7
O=C(C1CCC(Cn2c(=S)[nH]c3ccccc3c2=O)CC1)N1CCN(c2ccccc2)CC1 (stereo not given),14,x,33,x,-0.1,0.2,22,-1.0
CCC(C)(C)n1nnnc1C(c1cccnc1)N1CCCC(C)C1 (stereo not given),-9,9%,53,-0.7,0.4,2.4,-1,7.8
COc1ccccc1N1CCN(S(=O)(=O)c2ccc3c4c(cccc24)C(=O)N3C)CC1,16,2%,12,x,x,x,x,0.5
CCNC(=S)N1CCC(n2cnc3ccccc32)CC1,-5,-2%,-2,-1.9,-0.6,-6.5,-6,1.2
Cn1c(=O)c(C=Nc2ccccc2)c(O)c2ccccc21,10,5%,-6,x,0.1,-5.1,-18,6.5
C=CCOc1c(CNn2nnnc2N)cccc1OC,-7,-9%,-36,x,-0.3,3.2,-3,4.5
COC(=O)c1ccc(=O)n(-c2ccc(OC)cc2)c1,-5,-1%,3,x,0.7,-0.9,-9,2.2
COC(=O)c1ccc(-n2nnnc2SCC(=O)Nc2ccccc2F)cc1,1,3%,-6,2.6,1.0,-1.3,0,-4.7
O=c1c(-c2ccco2)[n+]([O-])c2ccccc2n1OCc1ccccc1[N+](=O)[O-],1,10%,3,-1.2,-0.6,4.1,-4,5.4
CCN(CC)CCNC(=O)c1cc2c(=O)n(C)c3ccccc3c2n1C,-1,-2%,3,-1.6,-1.2,0.7,7,u
CCn1nnc(NC(=O)c2sc3ccccc3c2Cl)n1,8,x,-4,x,-2.3,2.1,-4,1.6
CCOc1ccc(/C=N/NC(=O)Cc2csc(Nc3cccc(C(F)(F)F)c3)n2)c(OCC)c1,3,-1%,1,x,0.0,-0.4,-1,1.9
COc1ccc(NC(=O)CN(C)C(=O)c2ccc(=O)[nH]c2)cc1,-3,-2%,-11,-8.6,-0.2,-5.3,0,2.6
CCn1ncc([N+](=O)[O-])c1C(=O)Nc1ccc(C)c(C)c1,-3,-1%,-4,1.5,0.5,-1.0,-2,3.3
COc1cccc2cc(C(=O)Oc3ccccc3)c(=O)oc12,4,x,-15,1.0,-0.1,1.6,-5,0.9
CCCCn1c(N)c(N(CC(C)C)C(=O)CSc2ccc3c(c2)OCCO3)c(=O)[nH]c1=O,x,-9%,x,-1.5,-1.4,2.6,-9,x
CC(=O)N1CCC2(CC1)CC(=O)c1cc(OCC(=O)N3CCOCC3)ccc1O2,-11,-5%,-10,4.7,0.1,2.6,2,u
Cc1ccccc1-n1c(=O)c2ccccc2n2cnnc12,19,8%,-9,x,0.5,-2.3,x,-0.6
CCOc1ccc(C(=O)Nc2cc(=O)n(C)c(=O)n2C)cc1,-1,x,-3,-0.6,-0.3,2.4,-8,0.5
CCN(CC)C(=O)c1[nH]cnc1C(=O)N[C@@H](CCCCNC(=O)OC(C)(C)C)C(=O)OC(C)(C)C,10,21%,0,-3.0,1.7,-2.5,-2,-0.1
COc1ccc(C2C(C(=O)NCc3ccccc3)=C(C)Nc3ncnn32)cc1OC (stereo not given),-9,-5%,-6,x,0.6,-8.4,0,0.5
C=CCN(CC=C)C(=O)COC(=O)c1ccc(Sc2ncn[nH]2)c([N+](=O)[O-])c1,4,-5%,-3,-1.0,0.4,-2.5,0,1.7
Cc1cccc(N2CCN(S(=O)(=O)c3cccc4nonc34)CC2C)c1 (stereo not given),-4,x,11,2.2,-0.1,5.6,-10,4.2
O=C(COc1ccc(/C=N/NC(=O)c2ccccc2)cc1)Nc1ccc([N+](=O)[O-])cc1,2,-8%,-6,x,0.5,-1.9,1,-0.1
# Next section.
SMILES,Calb FLC,Vif TR-FRET,T cruzi repl,AF4-AF9 inh,A1 inh,LANA-H2A inh,Beta apoptosis,RanGTP-Imp inh
COc1ccc(-c2c3c(=O)n(C)c(=O)n(C)c3cn2NC(C)=O)cc1,4,u,-7,x,-0.2,2.3,-2,11
COc1ccc(CC(=O)N(Cc2ccccc2)C(C)C)cc1,2,x,-4,-0.3,0.1,-6.2,-6,-1.1
CCN1CCN(C(CNS(=O)(=O)c2ccc(OC)cc2)c2cccnc2)CC1 (stereo not given),1,u,17,-5.8,0.4,14*,0,-1.4
O=C1CC2(CCN(C(=O)COc3ccc(F)cc3)CC2)Oc2ccccc21,3,0%,-1,-1.6,0.6,-1.2,x,0.3
Cc1ccc(C(=O)Cn2nnc(-c3ccccc3)n2)cc1,-9,-7%,-4,3.7,-0.1,-5.3,-13,-4.9
O=[N+]([O-])c1ccc(OC(F)F)c(/C=N/n2cnnc2)c1,31,x,-41,-0.4,0.3,-3.0,4,-1.0
N#Cc1cccnc1N1CCN(C(=O)c2ccccc2)CC1,-1,4%,-5,3.3,1.4,12,1,0.1
CN1CCN(NC(=O)c2cccs2)CC1,0,-3%,6,0.2,2.3,0.1,-3,6.2
N#Cc1ccccc1CN1C(=O)c2ccccc2S1(=O)=O,-7,x,-6,-0.8,0.4,2.6,-12,u
Cc1[nH][nH]c(=O)c1C=Nc1ccc(C(F)(F)F)cc1,-14,x,-13,-1.8,0.1,-1.8,-4,-2.0
Cc1cc(=O)oc2cc(OCC(=O)OCC(=O)Nc3ccc4ccccc4c3)ccc12,0,-10%,-9,x,0.1,13,-2,u
O=C(CN1CCOCC1)Nc1ccc2c(c1)OCCO2,-1,13%,-4,-3.3,0.1,1.7,1,5.6
COc1ccc(CNC(=O)c2ccc(CNc3c(NC4CCCCC4)c(=O)c3=O)cc2)cc1,-3,1%,-20,4.1,0.5,2.2,-9,u
O=C(CC(c1ccccc1)c1ccccc1O)N1CCCCC1 (stereo not given),14,-2%,-4,-2.0,0.4,-1.9,x,1.3
O=C(COCc1cc(-c2ccc3c(c2)OCO3)on1)Nc1cccnc1Cl,0,-9%,-13,-2.9,-3.6,5.2,-5,-3.8
Fc1ccccc1C1c2cccn2CCN1C(=S)Nc1cccc(Br)c1 (stereo not given),1,4%,7,2.0,-0.2,-2.3,-13,u
COc1ccc2nc(SCC(=O)N3CCCCC3)c(C#N)cc2c1,15,-7%,16,-2.6,-0.4,-2.0,12,2.9
CCNc1nc(NC(C)C)nc(N(C#N)CC(=O)OC)n1,-10,6%,-5,-1.2,0.5,1.3,0,-0.1
O=C(O)c1cc(-c2ccc(-c3c(-c4ccc5c(c4)OCO5)noc3-c3ccsc3)cc2)nc2ccccc12,34,x,-14,1.0,-2.6,-2.9,x,0.5
OCc1ccccc1O[C@@H]1O[C@H](CO)[C@@H](O)[C@H](O)[C@H]1O,2,x,-5,-9.2,0.8,3.1,x,-0.3
COc1ccc(OCC(=O)N(C)Cc2ccccc2)cc1,1,8%,-13,x,-0.1,4.7,-8,0.7
Nc1nc(-c2cccs2)c(CC(=O)O)s1,-7,4%,-13,-1.9,0.0,-2.1,-4,3.9
CCc1ccc(-c2nn(-c3ccccc3C)cc2C(=O)N2CCN(C3CCS(=O)(=O)C3)CC2)cc1 (stereo not given),x,-4%,x,-0.6,2.3,4.2,-7,x
COc1ccc(-c2cc(C(F)(F)F)n3nc(C(=O)N4CCCC4)cc3n2)cc1,-4,16%,-11,x,-0.4,1.5,-5,9.3
Cc1csc(NC(=O)C2CCN(S(=O)(=O)c3ccc4c(c3)oc(=O)n4C)CC2)n1,0,1%,-4,6.4,0.0,-0.1,6,-4.2

# Outcome played no part in choosing rows; overall some 4.3% were active at least once.
